# NPYLR7 agonist = mosquito NPYLR7 agonism | HEK293T NPYLR7/Galpha15, GCaMP6s calcium fluorescence | activation, % at 10 µM | 270,000 compounds, 0.15% hits | AID 1259423; in the data active = activation above about 40%;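 also: 0% = vehicle and 100% = reference agonist at the receptor; some compounds past the cut are filed as inactive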
# NPYLR7 agonist max-min = also measured in NPYLR7 agonist; calls as there; activation, %; measured here: Max-Min RFU normalised activation; some inactives read as strong as hits;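 span of the calcium signal over five minutes; 0% = vehicle and 100% = native peptide agonist; compound fluorescence can raise it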
# Starred values were filed as active, the others as inactive; & = joins results of further samples. Only part of the results is shown; count on the stated rates, not on these rows.
SMILES,NPYLR7 agonist,NPYLR7 agonist max-min
CCNC(=O)C1(C)CCCN(Cc2csc3ccccc23)C1 (stereo not drawn),0,0
COc1ccc(Nc2nnc(SCCC3CCCCN3C)s2)cc1 (stereo not drawn),-3,-5
O=C1CCCC/C1=C/Nc1ccc(Br)cn1,2,-1
CSc1ccc(C(=O)Nc2cc(C)nn2-c2nc3ccccc3s2)cc1,-10,-15
CC(C)(C)OC(=O)C(C#N)c1cnccn1 (stereo not drawn),4,8
COc1cc(OC)cc(C2=NC3(CCCC3)NC2=O)c1,9,1
Cc1cn2c3c(=O)[nH]c(=O)n(C)c3nc2n1CCOCCO,2,-1
Cc1nnc2c3c4c(sc3ncn12)CC(C)CC4 (stereo not drawn),-4,-10
CC1(C(=O)NS(=O)(=O)c2ccc(Cl)s2)CCN1C(=O)CC1CC1 (stereo not drawn),1,2
CCCN(CC(=O)NC)c1nc(-c2cccnc2)nc2ccccc12,9,5
COc1ccc(CCN(Cc2ccc(C)o2)C(=O)CN(CC2CCCO2)C(=O)C2CC2)cc1OC (stereo not drawn),3,10
COC(=O)C1=C(C)N(C)C(C)=C(C(=O)OC)C1c1ccc(Cl)c(Cl)c1,-5,-3
CC1(C)C2CCC1(CS(=O)(=O)N1CCCC1)C(=O)C2 (stereo not drawn),11,9
Cc1cccc(N2CCN(S(=O)(=O)c3cccc4nsnc34)CC2)c1,-5,-9
CCCCCn1cc(C2CCN(C(=O)Cc3cccs3)CC2)c2ccccc21,14,26
O=C(COc1coc(CN2CCc3ccccc3C2)cc1=O)N1CCCC1,4,3
O=C(CCc1nnc(CCc2c[nH]c3ccccc23)o1)N1CCC(c2ccccc2Cl)C1 (stereo not drawn),0&16,-3&12
Cc1ccc2[nH]cc(-c3ccccc3C(N)=O)c2c1,13,10
COc1ccc(CCNC(=O)c2c(C)noc2-c2ccco2)cc1OC,1,7
CCCCNC(=O)N(Cc1cccc(OS(C)(=O)=O)c1)C(C)CC (stereo not drawn),10,19
CCCCc1nc(Cl)c(CN2CCN(Cc3cccc(F)c3)CC2)[nH]1,5,5
Cc1ccsc1CNc1cccc(C(=O)NCc2cccnc2)c1,24,15
CC1Cc2ccccc2N1C(=O)c1cccc(S(=O)(=O)OCC(F)(F)F)c1 (stereo not drawn),8,8
COc1cc(OC)cc(C(=O)OCCN=C2NS(=O)(=O)c3ccccc32)c1,-3,-6
COc1cc(CNC(=O)COC2CCCC2)ccc1O,-1,-3
Clc1ccccc1CSc1nnc2nc[nH]n12,-1,-1
Cc1sc2ncn(CC(O)c3ccccc3)c(=O)c2c1C (stereo not drawn),-1,-1
COc1ccc(-c2csc(=Nc3cc(F)ccc3F)n2Cc2ccccn2)cc1,0,-6
O=C(Cc1nc(-c2cncc(Br)c2)n[nH]1)NCc1ccccc1,1,-3
Cc1ccc(CNC(=O)c2csnn2)c(N(C)C)c1,-8,847
O=C(/C=C/c1cnccn1)Nc1cccc(Cn2cccn2)c1,-1,-9
Cc1ccc(S(=O)(=O)N=c2sc(C(C)(C)C)c(C)n2C)cc1,3,0
CSCCNC(=O)c1cc(N2CCOCC2)nc2ccccc12,7,3
COCCOCC(=O)N1CCN(CC(OCc2cccc(OC)c2)c2ccc(Cl)cc2)CC1 (stereo not drawn),-4,0
Cc1ccc(CN(C)C(=O)c2ccc(-n3ccnc3)nc2)c(C)c1,10,9
C=CCO[C@H]1[C@H](NC(=O)C2CC2)c2ccccc2C12CCN(C(=O)c1ccc(C(F)(F)F)cc1)CC2,14,1
COc1ccc2c(c1)OC[C@@H]1CN(CCC#N)C(=O)CCN[C@H]21,7,16
NCC1Cc2cc(-c3ncnc4sccc34)cc(Cl)c2O1 (stereo not drawn),35,18
CC(C)C(C)NC(=O)C1CCN(c2ccnc3cc(F)ccc23)CC1 (stereo not drawn),-3,-5
Cc1ccccc1C(NC(=O)c1occc1C)c1ccncc1 (stereo not drawn),2,0
CN(C)S(=O)(=O)c1ccc(C(=O)NCc2cc(-c3ccc4c(c3)OCO4)on2)cc1,3,3
Cc1ccnc(NCc2ccc(Cl)c(Cl)c2)c1,4,2
CCC1=NN(C(=O)c2cccc(Cl)c2)C(O)(C(F)(F)F)C1 (stereo not drawn),3,2
CCCc1nc2c(c(=O)c3ccccc3n2C)c(=O)n1CCc1ccccc1,5,4
C/C(=C\c1ccccc1)c1nc2ccc(Cl)cn2c1NC(C)(C)C,2,15
COc1ccc(CN(C)Cc2nc(-c3ccco3)oc2C)c2cccnc12,5,2
O=C(CCc1cc2c(n1-c1ccc3c(c1)OCO3)-c1ccccc1CC2)NCCCn1ccnc1,6,2
Cc1nn(-c2ccc(S(C)(=O)=O)cc2)c(C)c1CCC(=O)O,-1,-5

# The last 5 records of the section above lead into the next:
SMILES,NPYLR7 agonist,NPYLR7 agonist max-min
CCCc1nc2c(c(=O)c3ccccc3n2C)c(=O)n1CCc1ccccc1,5,4
C/C(=C\c1ccccc1)c1nc2ccc(Cl)cn2c1NC(C)(C)C,2,15
COc1ccc(CN(C)Cc2nc(-c3ccco3)oc2C)c2cccnc12,5,2
O=C(CCc1cc2c(n1-c1ccc3c(c1)OCO3)-c1ccccc1CC2)NCCCn1ccnc1,6,2
Cc1nn(-c2ccc(S(C)(=O)=O)cc2)c(C)c1CCC(=O)O,-1,-5
CCc1ccc(Cn2nccc2NC(=O)C2CCN(S(=O)(=O)c3ccc(C)c(C)c3)CC2)cc1,-1,-2
Nc1nc2c(s1)C(C1CCOC1)NCC2 (stereo not drawn),29,14
Cc1ccc(Oc2ncccc2C(=O)N2CCC(n3c(=O)oc4ccc(Cl)cc43)CC2)cc1,4,-1
O=C1CCC(=O)N1OCCCOc1ccccc1-c1ccccc1,-1,32
COC(=O)c1ccccc1C(=O)N(CCc1ccccc1)CC1CCCN(C)C1 (stereo not drawn),-7,0
O=[N+]([O-])c1cccc(S(=O)(=O)Nc2ccc(O)c(-c3c(O)ccc4ccccc34)c2)c1,-2,-3
CC(Nc1nc2ncn(Cc3ccccc3)c2c(=O)[nH]1)C(=O)O (stereo not drawn),-3,-6
CCCc1nc(C(=O)NC2CC(=O)N(CCc3ccc(F)cc3)C2)cs1 (stereo not drawn),4,-1
Cc1cc2n[nH]c(=S)n2c2ccccc12,6,4
COC(=O)[C@@H](NC1CCN(c2cccc(NC(=O)c3ccccc3OC)c2)CC1)C(C)C,13,6
CCOC(=O)c1ccc2c(c1)nc(SCc1cc(Br)cc(Br)c1)n2CCOC,-4,-7
CC(=O)N1CCC(C(=O)N2CCCC(Nc3ccccc3)C2)CC1 (stereo not drawn),8,7
COCC(=O)N(Cc1ccccc1)c1nc2cc(C)cc(C)c2s1,6,1
CCOc1ccc(S(=O)(=O)N=Nc2c(O)[nH]c3c(Br)cc(F)cc23)cc1,1,9
CCc1nc2ccc(C(=O)N3CCN(C(C)=O)CC3)cn2c1N(C)Cc1cc2ccccc2s1,14,7
CCOCCOc1nc(-c2ccccc2F)n(-c2ccc(NC(=O)Nc3ccc(F)cc3F)cc2)n1,-24,-11
CCC1CN(C(=O)C(=O)c2cccnc2)CCC(=O)N1Cc1ccccc1 (stereo not drawn),-7,-7
O=C(Cc1cccs1)N(Cc1ccccn1)C1CC1,2,-1
Cc1cc(O)cc2c1C(=O)/C(=C/c1cc3ccccc3o1)O2,28,25
O=C(/C=C/c1ccccc1)N1CCc2nc(-c3ccccc3)[nH]c(=O)c2C1,24,34
CCn1nc(C(C)C)cc1C(=O)NCc1cnc(SC)n1C,5,4
CN(Cc1cnccn1)C(=O)CC1C(=O)NCCN1CCCc1ccccc1 (stereo not drawn),-1,-3
Cc1ccc(F)c(S(=O)(=O)NC(=O)C2(C)CCN2C(=O)c2sccc2C)c1 (stereo not drawn),-2,-2
CNC(=O)CN1C(=O)NC(c2ccc(C)cc2)(c2ccc(C)cc2)C1=O,0,-3

# Rewritten as tab-separated lines: part of the list above
SMILES	NPYLR7 agonist	NPYLR7 agonist max-min
CCOCCOc1nc(-c2ccccc2F)n(-c2ccc(NC(=O)Nc3ccc(F)cc3F)cc2)n1	-24	-11
CCC1CN(C(=O)C(=O)c2cccnc2)CCC(=O)N1Cc1ccccc1 (stereo not drawn)	-7	-7
O=C(Cc1cccs1)N(Cc1ccccn1)C1CC1	2	-1
Cc1cc(O)cc2c1C(=O)/C(=C/c1cc3ccccc3o1)O2	28	25
O=C(/C=C/c1ccccc1)N1CCc2nc(-c3ccccc3)[nH]c(=O)c2C1	24	34
CCn1nc(C(C)C)cc1C(=O)NCc1cnc(SC)n1C	5	4
CN(Cc1cnccn1)C(=O)CC1C(=O)NCCN1CCCc1ccccc1 (stereo not drawn)	-1	-3

# The listing picks up, repeating the 2 entries before the break.
SMILES,NPYLR7 agonist,NPYLR7 agonist max-min
Cc1ccc(F)c(S(=O)(=O)NC(=O)C2(C)CCN2C(=O)c2sccc2C)c1 (stereo not drawn),-2,-2
CNC(=O)CN1C(=O)NC(c2ccc(C)cc2)(c2ccc(C)cc2)C1=O,0,-3
Cn1nc2c(c1C(=O)N[C@@H]1c3ccccc3C3(CCNCC3)[C@H]1O)CCCC2,1,-1
Cn1cc(C(=O)NCC2CCCO2)c2[nH]c(=O)n(-c3ccc(Cl)cc3)c(=O)c21 (stereo not drawn),2,1
CCCN(Cc1cnn(C)c1)C(=O)NCCN1C(=O)CSC1=O,8,5
COCCn1c(SCc2ccc(C)cc2)nc2c([nH]c3ccccc32)c1=O,1,1
CC(NC(=O)C=Cc1cccc(F)c1)C1CC1 (stereo not drawn),5,0
NS(=O)(=O)CCCn1nc(Br)nc1Br,0,-16
Cc1ccc(NC(=O)CC(=O)NC(C)c2nc3ccc(C)cc3[nH]2)c(C)c1 (stereo not drawn),12,-4
CCCc1ccc(NC(=O)c2cnc(C)cn2)cc1,-4,-2
Cc1nc(CN(C)Cc2cccc(-c3ccco3)c2)no1,2,1
COc1ccc2n[nH]c(CN3CCN(Cc4cccc(F)c4)CC3)c2c1,4,3
CC(C)Oc1ccccc1OCCCCN1CCCCCC1,4,2
Cc1ccc2c(c1)c1cccc3c1n2CCN3CCC#N,5,1
O=C(C=Cc1ccccc1)N1CCN(S(=O)(=O)C=Cc2ccccc2)CC1,-7,-10
CCCCCCNC(=O)c1cc(-c2ccccc2)nn1-c1ccc(C)cc1C,13,23
COC(=O)c1ccc(Cn2nc(C)c3cnn(-c4cccc(Cl)c4)c3c2=O)o1,6,-1
Cc1nnc(SCCCNC(=O)c2cc(C(C)C)n3ncnc3n2)s1,22,12
OCc1cc2ccccc2nc1-c1cccc2[nH]ccc12,-1,-2
CC(C)COc1ccccc1CN(C)C(=O)CN1CCCC1,8,8
CC(=O)N1CCc2c(sc(NC(=O)c3ccc4ccccc4c3)c2-c2nc3ccccc3s2)C1,4,0
CCCC12CN(C(=O)c3cccnc3Nc3cccc(C)c3C)CC1C(=O)NC(=O)N2 (stereo not drawn),-4,-9
CC(C)CCCC(=O)n1ccn(-c2cccc(C(F)(F)F)c2)c1=O,0,-9
O=C(COC(=O)c1cccs1)Nc1ccc(Cl)cc1[N+](=O)[O-],4,0
CNC(=O)c1ccc(NC(=O)CCC(=O)c2cccs2)cc1,11,6
CN1C(=O)c2ncccc2[C@H](CC(=O)O)[C@H]1C(=O)NC1CC1,7,8
O=C(NCCN1CCCC(O)C1)c1ccc2nc(Cc3cccc(Cl)c3)oc2c1 (stereo not drawn),3,2
CCOC(=O)Cn1c(=O)c2c(nc3n2CC(C)CN3c2ccc(OCC)cc2)n(C)c1=O (stereo not drawn),10,14
